Bfl-1 A1 inh: inhibitors of the anti-apoptotic protein A1, read as caspase activation | MEF A1-2A-BIM cells, Caspase-Glo 3/7 luminescence, 3 h; percent of clofoctol response, vehicle zero | caspase activation, % (test concentration not listed) | hit rate 0.066% among 330,000;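 active = over half of replicate activation scores above 10%, or exactly half above 10 with the replicate mean above 10; inconclusive = replicate mean below 10 yet half the replicates above 10; inactive = over half of replicates below 10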;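 also: wells of about 30 µL received 50 nL stock; many hits fall short of the cut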
FGF22 binding: binders of recombinant human FGF22 by thermal shift; Q9HCT0; SYPRO orange fluorescence; percent of sucrose octasulfate shift, DMSO zero; calls only at 9.99 µM; hit rate 1.5% among 340,000; AID 651658;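 active = melting point raised past a set limit in the mean and every replicate; inconclusive = no clear call; three in four hits are not shown here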
Target sequence (Q9HCT0 whole entry, looked up): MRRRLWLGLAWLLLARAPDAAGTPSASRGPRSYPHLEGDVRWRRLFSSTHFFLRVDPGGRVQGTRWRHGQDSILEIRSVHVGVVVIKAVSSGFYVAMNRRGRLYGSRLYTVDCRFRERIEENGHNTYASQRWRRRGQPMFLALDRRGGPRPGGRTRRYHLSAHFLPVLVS
AF4-AF9 inh: blocks AF4 peptide binding to human AF9. P42568. AlphaScreen, biotin-AF4 peptide binding to FLAG-AF9. inhibition, % at 10 µM. hit rate 0.47% among 350,000. AID 651704;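 active = every replicate reaching a set inhibition limit, whatever the replicate mean, cut at about 25% in these data; inconclusive = mean inhibition reaches that limit but some replicates miss it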;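 also: 0% = plate neutral control median and 100% = total signal loss; the record names both 10 and 1 µM as test concentration; the first replicate is given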
T cruzi inh: blocks replication of Trypanosoma cruzi; T. cruzi beta-gal in NIH3T3, luminescence, 90 h; inhibition, % (test concentration not listed); hit rate 1.4% among 300,000; AID 1885;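 active = mean inhibition across valid replicates above about 55%, limit read from the data; inconclusive = mean below that limit but half or more replicates reach it; inactive = mean below it, under half of replicates reach it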;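 also: signal also drops with host cell toxicity which is not excluded here; 0% = plate median of DMSO wells and 100% = zero luminescence signal; higher percent means less beta-gal luminescence so fewer parasites; stock transfer was 50 nL into about 50 µL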
Beta apoptosis: beta cell apoptosis inhibition; hit rate 0.8% among 300,000; INS-1E cytokine-induced death, ATP luminescence, 48 h; percent of positive-control rescue, neutral wells zero; protection from apoptosis, % (test concentration not listed); AID 435005;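 active = all replicates at 75% or more, or half of them and the mean; inconclusive = half reach 75% but not the mean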;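 also: 0% = cytokine-treated negative control wells and 100% = positive control rescue; higher means more ATP so stronger rescue from cytokine killing; wells of about 40 µL received 100 nL stock; the first replicate is given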
UCH37 inh: human UCH37 deubiquitinating enzyme inhibition. AID 588478. purified proteasome/UCH37, Ub-AMC cleavage fluorescence. inhibition, % (no concentration beside the values). Q9Y5K5. hit rate 0.33% among 330,000;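 active = mean of two replicates above 20%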;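 also: 0% = compound-free wells with enzyme and 100% = wells lacking proteasome; stock transfer was 100 nL into about 20 µL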
Target sequence (Q9Y5K5 whole entry, looked up): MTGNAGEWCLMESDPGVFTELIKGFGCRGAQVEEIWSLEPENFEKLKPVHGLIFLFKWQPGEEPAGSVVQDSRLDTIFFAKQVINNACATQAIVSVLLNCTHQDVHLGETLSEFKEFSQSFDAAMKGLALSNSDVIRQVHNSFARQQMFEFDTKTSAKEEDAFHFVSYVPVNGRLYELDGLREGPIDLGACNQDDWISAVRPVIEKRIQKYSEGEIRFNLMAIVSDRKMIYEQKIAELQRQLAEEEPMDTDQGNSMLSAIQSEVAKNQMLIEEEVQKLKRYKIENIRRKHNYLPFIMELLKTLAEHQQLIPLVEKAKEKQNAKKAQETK
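assay system = human UCH37 enzyme supplied as purified proteasome complex | amount = proteasome at 0.15 nM in the dispensed enzyme solution | schedule = 30 min compound-proteasome preincubation then 25 min substrate reaction, room temperature | measured by = fluorescence, ex 355 nm, em 460 nm | benchmarks = no-proteasome wells (full inhibition) and compound-free wells (no inhibition)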
rRNA inh HTS: inhibitors of bacterial rRNA selective over humanized ribosomes. E. coli WT GFP vs humanized-ribosome RFP mutants, fluorescence, 24 h; hits give low values; DMSO median 0, no signal -100. GFP signal change (wild-type ribosome), % (concentration not given with the values). hit rate 1.6% among 350,000. AID 720706;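 active = significant combined selectivity score with lowered wild-type GFP, culture density cut under 30%, mutant RFP and density less affected; inactive = any of these conditions unmet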; also: one replicate is shown; some compounds called inactive have numbers as strong as hits
Ecoli growth: blocks Escherichia coli growth; OD600, 23 h; hits give low values; OD600 absorbance (no concentration beside the values); hit rate 0.21% among 330,000;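 active = OD600 absorbance below the run mean of sample wells minus 3.6 SD, in any replicate, cut at about 0.56 in these data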;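 also: stock transfer was 300 nL into about 60 µL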
rRNA inh HTS OD600: second read-out of rRNA inh HTS, no call of its own (marks repeat the call); OD600 change, %; measured here: OD600 growth;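 optical density of the mix in the first replicate; 0 = DMSO median and -100 = no signal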
rRNA inh HTS RFP: recorded beside rRNA inh HTS, whose call it bears; RFP signal change, %; measured here: RFP humanized mutant strains;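 first replicate; 0 = DMSO median and -100 = no signal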
* = called active by the depositor; i = inactive; ? = inconclusive; . = no result given; & = joins results of further samples. These rows are one share of the data; rates above refer to the full screens.

SMILES	Bfl-1 A1 inh	FGF22 binding	AF4-AF9 inh	T cruzi inh	Beta apoptosis	UCH37 inh	rRNA inh HTS	rRNA inh HTS OD600	rRNA inh HTS RFP	Ecoli growth
Cc1ccc(-c2noc(CCCC(=O)NCC3CCCO3)n2)cc1 (centres undefined)	0.3	i	2.3	-6	-2	4.2	3	8	1.5	0.7
O=C1c2sc3nc4ccccc4n3c2C(=O)N1c1ccccc1Cl	2.0	.	.	1	1	2.7	.	.	.	0.68
COCCCNC(=O)c1cc(C(=O)c2c(-c3c(Cl)cccc3Cl)noc2C)c[nH]1	-0.2	.	.	5	.	-0.2	.	.	.	0.71
Cc1ccc(-c2nc3ccccc3[nH]2)cc1NC(=O)c1ccc2c(c1)OCO2	0.2	.	.	25	-2	3.1	.	.	.	0.66
O=C(CSc1nnc(Cc2ccccc2)o1)c1ccccc1	0.0	i	-0.7	10	-3	0.6	-6	-10	-1.0	0.63
O=C(CN1CCC(Cc2ccccc2)CC1)N1CCc2ccccc2C1	-0.3	i	1.8	12	.	-0.3	3	-7	1.4	0.65
COc1ccc2nc(NC(=O)CSc3nc4ccccc4o3)sc2c1	-0.7	.	.	-13	2	6.7	.	.	.	0.69
CCOC(=O)c1ccc(Oc2nc(NC)nc(SC)n2)cc1	-1.2	.	.	-15	.	2.5	.	.	.	0.7
COC(=O)c1sc(NC(=S)NC(=O)c2ccccc2F)nc1C	0.6	i	-1.2	-12	-1	6.0	-3	-1	0.4	0.74
CC(=O)Nc1cc(N2C(=O)CCC2=O)ccc1Cl	-1.1	.	.	0	2	1.6	.	.	.	0.66
Cc1nc2ccccn2c1C(=O)N/N=C/c1ccccc1Cl	0.6	i	-0.1	-11	-8	.	4	9	-0.2	.
O=C1CSc2ccc(S(=O)(=O)NCc3ccc(Cl)cc3)cc2N1	-0.5	i	-2.7	-1	-1	3.1	-30*	-23*	1.9*	0.7
CCC(C(=O)N(C(C)C)C(C)C)c1ccccc1 (centres undefined)	1.1	i	-2.9	.	2	2.5	9	8	2.4	0.77
O=C(O)c1cc2cccc(S(=O)(=O)N3CCOCC3)c2cc1O	0.5	.	.	-21	1	-50	.	.	.	0.69
Cc1ccc(-c2noc(CCC(=O)NCCN3CCOCC3)n2)cc1	-0.6	.	.	-27	-8	-1.6	.	.	.	0.74
CC1CNCCN1S(=O)(=O)c1cccc2cnccc12 (centres undefined)	-0.3&-0.2	i	0.8&-4.2&-2.5	9&-19	-2&-8	-3.2&2.7	.	.	.	0.73&0.68
CCN(Cc1ccccc1)C(=O)CC(=O)N(CC)Cc1ccccc1	-4.1	i	-3.0	2	.	0.3	8	5	1.0	0.71
CC(OC(=O)Cn1cnc2c1c(=O)n(C)c(=O)n2C)C(=O)NC1CCCCC1C (centres undefined)	0.3	i	?	-6	-4	2.7	5	12	-0.4	0.66
COCCn1c(SCC(=O)Nc2cccc(OC)c2)nc2c(oc3ccccc32)c1=O	0.4	i	-9.4	12	-1	1.9	4	21	2.5	0.69
Cc1c(C)n(CCN(C)C)c2ncnc(NCc3ccccc3)c12	-0.8	i	9.6	-3	-8	4.2	-2	8	-1.8	0.66
Cc1cc(C)cc(NC(=S)N(Cc2ccc(Cl)cc2)Cc2ccc(C(=O)O)cc2)c1	0.5	.	-0.7	12	-3	0.9	-19	-20	-1.4	0.66
CC(=O)n1cc([C@H]2C=C(C(=O)N3CCN(Cc4ccc5c(c4)OCO5)CC3)O[C@@H](OCCCCO)C2)c2ccccc21	-0.1	i	1.0&1.3	45	5	4.0	-6	-15	12	0.77
CCCCCNC(=O)c1cc(S(=O)(=O)N2CCCC2)ccc1F	-0.9	.	.	-8	-3	1.5	.	.	.	0.7
CC(C)N1C(=O)CCC1C(=O)NCCc1ccc(Cl)cc1 (centres undefined)	0.7	i	?	-4	-4	4.8	5	10	-2.6	0.7
COc1cc(C(=O)N/C(=C\c2cn(S(=O)(=O)N(C)C)c3ccccc23)C(=O)N2CCCC2)cc(OC)c1OC	-0.1	i	13	9	13	-0.7	1	5	4.7	0.67
CC(C)CCNC(=O)c1nn(Cc2ccccc2)c(=O)c2ccccc12	-0.4	i	0.2	8	-1	-1.0	13	16	0.6	0.71
Cc1c(Br)c(C(F)(F)F)nn1CC(=O)N(C)C1CCCCC1	0.4	i	-1.0	-4	-8	-0.4	-2	0	-4.5	0.67
Cc1ccc(S(=O)(=O)N2[C@@H](c3ccc(F)cc3)C(C(=O)O)=CC[C@H]2c2ccc3c(c2)OCO3)cc1	-1.5	i	.	.	3	0.8	-18	-18	-1.4	.

Profiles as entered above.
CC(=O)Nc1cc(N2C(=O)CCC2=O)ccc1Cl in the list: Bfl-1 A1 inh: -1.1; FGF22 binding: .; AF4-AF9 inh: .; T cruzi inh: 0; Beta apoptosis: 2; UCH37 inh: 1.6; rRNA inh HTS: .; rRNA inh HTS OD600: .; rRNA inh HTS RFP: .; Ecoli growth: 0.66
CCOC(=O)c1ccc(Oc2nc(NC)nc(SC)n2)cc1 in the list: Bfl-1 A1 inh: -1.2; FGF22 binding: .; AF4-AF9 inh: .; T cruzi inh: -15; Beta apoptosis: .; UCH37 inh: 2.5; rRNA inh HTS: .; rRNA inh HTS OD600: .; rRNA inh HTS RFP: .; Ecoli growth: 0.7

Entries from the list above with a halogen (eleven):
SMILES	Bfl-1 A1 inh	FGF22 binding	AF4-AF9 inh	T cruzi inh	Beta apoptosis	UCH37 inh	rRNA inh HTS	rRNA inh HTS OD600	rRNA inh HTS RFP	Ecoli growth
O=C1c2sc3nc4ccccc4n3c2C(=O)N1c1ccccc1Cl	2.0	.	.	1	1	2.7	.	.	.	0.68
COCCCNC(=O)c1cc(C(=O)c2c(-c3c(Cl)cccc3Cl)noc2C)c[nH]1	-0.2	.	.	5	.	-0.2	.	.	.	0.71
COC(=O)c1sc(NC(=S)NC(=O)c2ccccc2F)nc1C	0.6	i	-1.2	-12	-1	6.0	-3	-1	0.4	0.74
CC(=O)Nc1cc(N2C(=O)CCC2=O)ccc1Cl	-1.1	.	.	0	2	1.6	.	.	.	0.66
Cc1nc2ccccn2c1C(=O)N/N=C/c1ccccc1Cl	0.6	i	-0.1	-11	-8	.	4	9	-0.2	.
O=C1CSc2ccc(S(=O)(=O)NCc3ccc(Cl)cc3)cc2N1	-0.5	i	-2.7	-1	-1	3.1	-30*	-23*	1.9*	0.7
Cc1cc(C)cc(NC(=S)N(Cc2ccc(Cl)cc2)Cc2ccc(C(=O)O)cc2)c1	0.5	.	-0.7	12	-3	0.9	-19	-20	-1.4	0.66
CCCCCNC(=O)c1cc(S(=O)(=O)N2CCCC2)ccc1F	-0.9	.	.	-8	-3	1.5	.	.	.	0.7
CC(C)N1C(=O)CCC1C(=O)NCCc1ccc(Cl)cc1 (centres undefined)	0.7	i	?	-4	-4	4.8	5	10	-2.6	0.7
Cc1c(Br)c(C(F)(F)F)nn1CC(=O)N(C)C1CCCCC1	0.4	i	-1.0	-4	-8	-0.4	-2	0	-4.5	0.67
Cc1ccc(S(=O)(=O)N2[C@@H](c3ccc(F)cc3)C(C(=O)O)=CC[C@H]2c2ccc3c(c2)OCO3)cc1	-1.5	i	.	.	3	0.8	-18	-18	-1.4	.

Compound activity (PubChem BioAssay)
